Source: PubChem (National Center for Advancing Translational Sciences (NCATS))
miR-21 reporter = qHTS Assay for Modulators of miRNAs and/orActivators of miR-21 | HeLa miR-21 FLuc reporter, luciferase, 48 h | Potency, µM (series often up to 38.3 µM), without a hit: at the highest dose reporter change, positive = more light | 340,000 tested, under 10 active | AID 2288, 2010; active = well fitted rising curve with a large enough effect; inconclusive = small, poorly fitted or top-dose-only effect; inactive = no such curve, though single readings can be large or run the other way;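 also: % of control where 0% means no effect; miR-21 action dims this reporter so a rising signal means less miR-21 action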
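HeLa cells stably expressing CMV-driven firefly luciferase with a downstream miR-21 binding sequence, endogenously expressing miR-21, were treated with titrations (up to about 40uM final) for 48 hours at 37 degree Celsius. Luciferase luminescence was read after lysis.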
Rango dissoc inh = qHTS Assay for Inhibitors of RanGTP induced Rango (Ran-regulated importin-beta cargo) - Importin beta complex dissociation; hit rate 0.071% among 340,000; Potency, µM (top dose mostly 46.1 µM), for the others: at the highest dose activity change, negative = inhibition; Biochemical FRET Rango-importin beta, RanGTP-induced dissociation; Snurportin-1 (Homo sapiens) + GTP-binding nuclear protein Ran (Homo sapiens) + Importin …; active means falling FRET ratio curve, often poorly fitted, with flat reads before Ran was added; inconclusive means other falling curves, or compound fluorescence or quenching; inactive means flat or rising ratio curve;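 also: potency is read from the fitted curve at half-maximal effect; % of control where 0% means no effect; nearly all actives have a fitted effect of over 45% in size; -100% = wells without RanGTP and RCC1; the record marks most hits as doubtful in a second field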
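Rango (0.1 uM)–importin beta (0.25 uM) complex; RanGTP-RCC1 trigger; 45 min RT; CFP/YFP FRET read.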
Rango-impB inh = qHTS Assay for Inhibitors of Rango (Ran-regulated importin-beta cargo) - Importin beta complex formation; Importin subunit beta-1 (Homo sapiens), Q14974; AID 540263, 2011; Rango CFP/YFP FRET sensor + importin beta, 45 min; hit rate 0.031% among 340,000; Potency, µM (highest dose often 92.2 µM), inactives show at the top dose inhibition of complex formation; active = rising FRET ratio curve, often small or poorly fitted; inconclusive = mostly compound fluorescence or quenching in the first reads; inactive = flat curves in all reads;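 also: potency is read from the fitted curve at half-maximal effect; 0% = DMSO wells and 100% = buffer wells lacking importin beta; nearly all actives have a fitted effect of over 15% in size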
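Inhibition scored from the CFP 486 nm/YFP 530 nm FRET ratio 45 min after adding 0.125 microM importin beta to 50 nM Rango biosensor preincubated 5 min with compound (room temperature, PBS with DTT, Tween-20, BSA). No-importin wells as positive control.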
GLA inh pH 4.5 = qHTS Assay for Inhibitors of Human alpha-Galactosidase at pH 4.5. purified enzyme, 4-MU-alpha-Gal fluorescence, pH 4.5. activity change, negative = inhibition, % at 105 µM. 230,000 tested, under 10 active; inconclusive = small, poorly fitted or top-dose-only inhibition, or a rising curve; inactive = flat fitted curve, though single readings scatter; no compound was filed as active;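 also: 0% = full activity with enzyme and -100% = basal without enzyme; dose as in the result columns while the protocol names 77 µM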
Target sequence (P06280 whole entry, looked up): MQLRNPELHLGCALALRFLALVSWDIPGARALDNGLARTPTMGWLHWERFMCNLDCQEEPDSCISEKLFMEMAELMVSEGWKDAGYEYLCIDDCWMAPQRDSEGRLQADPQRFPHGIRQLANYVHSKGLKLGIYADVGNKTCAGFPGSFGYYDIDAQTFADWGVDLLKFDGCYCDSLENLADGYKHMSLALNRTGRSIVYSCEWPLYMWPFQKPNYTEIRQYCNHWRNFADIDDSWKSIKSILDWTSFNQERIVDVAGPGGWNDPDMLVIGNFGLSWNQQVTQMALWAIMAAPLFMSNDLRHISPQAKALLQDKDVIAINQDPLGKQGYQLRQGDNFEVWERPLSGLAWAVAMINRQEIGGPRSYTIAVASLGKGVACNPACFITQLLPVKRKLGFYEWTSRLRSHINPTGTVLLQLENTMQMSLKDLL
An asterisk follows results filed as active; ? = inconclusive; . = not tested or not shown; & = joins results of further samples; [ ] = another dose, or the depositor's remark.

GLA inh pH 4.5	miR-21 reporter	Rango-impB inh	Rango dissoc inh	Structure
-11	14%	0.6%	10%	CCCN(CCC)S(=O)(=O)c1ccc(C(=O)N2CCCc3ccccc32)cc1
1	-29%	?	11%	Cc1ccc(C2C(C(=O)c3cc4ccccc4o3)=C(O)C(=O)N2CCN2CCOCC2)o1 (stereo not given)
.	28%	-0.9%	4%	COc1ccc(NC(=O)c2ccc(Br)c(S(=O)(=O)N3CCOCC3)c2)cc1
0	-1%	0.6%	6%	C=CCn1c(SCC(=O)N2CCCCC2)nc(O)cc1=O
.	-12%	-1.9%	-1%	O=C(Cc1cccs1)NCCc1ccc(F)cc1
-3	-1%	1.5%	-13%	O=C(c1ccc(F)cc1)N1CCN(c2ccc([N+](=O)[O-])c(N3CCOCC3)c2)CC1
0	-6%	?	1%	O=C(Cn1cnc2cc([N+](=O)[O-])ccc2c1=O)NC(c1ccccc1)c1ccccc1
1	-47%	0.1%	-1%	CC(=O)c1ccc(NC(=O)C2(c3ccccc3)CCOCC2)cc1
.	-6%	-1.4%	2%	Cc1cc(C)cc(-n2ncc3c2CCCC3NC(=O)CCN2Cc3ccccc3C2=O)c1 (stereo not given)
-12	-3%	-1.9%	-23%	N#CC1=C2SCN(Cc3ccccc3)CN2C(=O)CC1c1cccs1 (stereo not given)
9	1%	-1.7%	-18%	COc1cc(C)nn1-c1ccc(Cl)cc1
.	4%	1.0%	0%	COc1ccc2[nH]c3c(c2c1)CCN1C(=O)N([C@@H](C)C(=O)NCc2ccccc2OC)C(=O)[C@]31C
.	0%	-0.7%	1%	CCCC(=O)C1=C(O)C(C(=O)OC)C(C)(C)CC1=NCCc1ccccc1 (stereo not given)
-3	-12%	2.6%	-12%	COc1ccc(C(=O)C2CCN(C(=O)c3ccco3)CC2)cc1
-5	1%	5.1%	1%	Cc1cc(NC(=O)CSc2nnc(C3CC3)n2C)no1
.	.	2.4%	7%	CC(OC(=O)CNC(=O)c1ccc(Cl)c(Cl)c1)C(=O)N1CCOCC1 (stereo not given)
-13	.	-2.5%	1%	CCOC(=O)C1=C(c2ccccc2)c2ccc(OC)cc2N(S(=O)(=O)C(F)(F)F)C1C(=O)OCC (stereo not given)
4	-1%	-3.5%	12%	CC(=O)c1cccc(NC(=O)C2CCN(S(=O)(=O)c3c(C)n[nH]c3C)CC2)c1
4	3%	-2.6%	1%	COc1ccccc1S(=O)(=O)Cc1ccc(C(=O)NCc2cccnc2)o1
-9	-37%	-1.7%	8%	CN(C)c1ccc(/C=C/C(=O)c2ccccc2)cc1[N+](=O)[O-]
.	.	-1.9%	8%	C[C@H](NS(=O)(=O)c1ccccc1)C(=O)N1CCN(C(c2ccccc2)c2ccccc2)CC1
5	-13%	0.8%	15%	O=C(NCCCN1CCOCC1)c1coc2ccccc2c1=O
0	-7%	-0.2%	?	CS(=O)(=O)N1CCC(C(=O)NCC2CCCO2)CC1 (stereo not given)
7	0%	2.6%	-10%	CCCCCc1nnc(NC(=O)Cc2ccc([N+](=O)[O-])cc2)s1
-14	-1%	0.8%	-5%	CC1=C(C(=O)OC(C)C)C(/C=C/c2ccccc2)NC(=O)N1 (stereo not given)
.	.	8.7%	12%	CC1CCCCN1C(=O)NC1CC(=O)N(c2ccc3c(c2)OCCO3)C1 (stereo not given)
.	0%	-3.4%	7%	Cc1cccc(NC(=O)c2ccc3c(c2)C(=O)N(c2ccccn2)C3=O)c1C
.	19%	-4.3%	-10%	O=C(Cc1ccc(S(=O)(=O)N2CCOCC2)s1)N1CCN(c2cccc(C(F)(F)F)c2)CC1
10	-16%	2.4%	-7%	CCc1cc(C(=O)Cc2cnn(-c3ccccc3)c2)c(O)cc1O
-4	-8%	?	?	CCc1cc2c(=O)nc3n(c2s1)Cc1ccccc1/C3=C(/O)c1ccccc1Cl
.	-4%	-3.6%	22%	Cc1ccc(-c2nc(CS(=O)CC(=O)NC3CCCCC3)c(C)o2)cc1 (stereo not given)
-2	-4%	-2.4%	-1%	Cc1cccc(C(=O)Nc2nnc(-c3cccnc3)o2)c1
.	16%	-3.4%	2%	COCCn1c(=S)[nH]c2cc(C(=O)N3CCCC(C)C3)ccc2c1=O (stereo not given)
-1	4%	6.4%	35%	O=C(CCc1ccc(Oc2cc([N+](=O)[O-])cc([N+](=O)[O-])c2)cc1)N1CCCCC1
5	0%	-2.3%	1%	COc1ccc(C(=O)Nc2cccc(-c3nc4ncccc4o3)c2C)cc1
6	0%	-0.5%	-1%	O=C(CC(NC(=O)c1ccccc1Cl)c1ccccc1)NC1=NCCS1 (stereo not given)
-7	-12%	-2.7%	-7%	CC1(C)C(c2cccs2)=NC(c2ccccc2)N1O (stereo not given)
1	1%	-2.3%	-16%	CC(=O)OC(C(=O)NCc1ccc(F)cc1)c1ccccn1 (stereo not given)
-8	?	1.3%	2%	CCOc1cc(/C=C2/COc3ccccc3C2=O)ccc1OCC(=O)N(C)C
.	-1%	-0.2%	1%	CCn1nc(C)c(CNC(=O)c2cc(COc3ccccc3SC)on2)c1C
.	-1%	0.1%	12%	O=C(Cc1ccccc1F)NNC(=O)c1ccncc1
-7	-33%	7.1%	-10%	Cc1nc2cc(NC(=O)NCc3ccco3)ccc2o1
.	-6%	-1.9%	-4%	CCc1c(O)nc(SCC(=O)N2CCc3cc(OC)c(OC)cc3[C@@H]2C)[nH]c1=O
-2	-7%	0.4%	-13%	CCC(C(=O)OCC(=O)Nc1cccc(OC)c1)c1ccccc1 (stereo not given)
.	2%	-0.5%	-9%	Cc1nc(-c2ccc(F)cc2)c(CC(=O)Nc2ccc(C)c(S(=O)(=O)N3CCOCC3)c2)s1
-5	-8%	-1.3%	-10%	Cc1nnc(SCC(=O)N/N=C/c2cn(-c3ccccc3)nc2-c2ccc(F)cc2)n1-c1ccccc1
0	13%	0.2%	-4%	COc1cc(/C=C2/NC(=O)N(Cc3ccccc3F)C2=O)cc(OC)c1OC
.	.	0.0%	-10%	O=c1[nH]c(O)c(N=Nc2ccc(Cl)c(S(=O)(=O)Nc3ccccc3Cl)c2)c(=O)[nH]1
-3	-1%	0.1%	-9%	COC(C[C@@H](O)[C@@H](C)[C@@H](O)COCc1ccccc1)OC
.	-3%	-1.8%	9%	Cc1ccc(NC(=O)c2ccc(NC3=NC4CS(=O)(=O)CC4S3)cc2)cc1 (stereo not given)
-1	-2%	1.9%	-4%	O=C(NC1(C(F)(F)F)NC(=O)N(Cc2ccco2)C1=O)c1cccs1 (stereo not given)
2	-1%	0.3%	1%	CCCCNc1nc(=S)n(-c2ccccc2)c(C)c1C(C)=O
.	.	3.9%	-5%	COc1ccc(NC(=O)N(C)C[C@@H]2Oc3ccc(NC(=O)NC(C)C)cc3CC(=O)N([C@H](C)CO)C[C@@H]2C)cc1
.	.	0.7%	16%	COC(=O)c1ccc(OC(=O)C2CSC3(C)CCC(=O)N23)cc1 (stereo not given)
.	.	0.6%	-17%	CC1CCC2(CC1)NC(=O)N(NC(=O)c1cccs1)C2=O (stereo not given)
.	-17%	-7.4%	-4%	Cc1ccc(NC(=O)Nc2ccc3c(c2)nnn3C)cc1C
4	0%	-1.5%	12%	CCNC(=O)CC1C(=O)N(C)C(=S)N1NC(=O)c1ccc(Cl)cc1 (stereo not given)
-4[21.1 µM]	2%	-3.9%	?	CCOC(=O)N1CCC(NC(=O)c2cc(C(=O)Nc3ccc(S(=O)(=O)N4CCOCC4)cc3)ccc2CO)CC1
.	.	1.3%	13%	O=C(Cn1c(NCCCO)nc2ccccc21)c1cccs1
9&3	0%	-0.6%	1%	COC(=O)C1=C(C(=O)OC)[C@@H]2Nc3ccccc3[C@@]23C[C@@H](C(=O)OC)N=C3N1

Further results
GLA inh pH 4.5	miR-21 reporter	Rango-impB inh	Rango dissoc inh	Structure
-2	-5%	-0.3%	-3%	CC1=CC(=O)N(c2ccc(C)cc2)C1c1ccc(Cl)cc1 (stereo not given)
9	-23%	0.7%	11%	O=C(CCc1ccc(O)c(O)c1)NNC(=S)NCCc1ccccc1
-16	1%	-3.7%	-5%	COc1ccc(Cl)cc1NC(=O)CSc1nnc(CNC(=O)c2ccco2)o1
-2	2%	3.5%	-8%	COC(=O)c1ccccc1CCC(C)=O
-1	-6%	?	?	COc1ccc(-c2cc(C(F)(F)F)n3ncc(C(=O)NCc4ccco4)c3n2)cc1
-3	-3%	2.4%	-12%	Cc1nc(SCC(=O)Nn2c(-c3ccccc3)nc3ccccc3c2=O)n[nH]1
.	0%	0.1%	0%	Cc1cc(NC(=O)Nc2cccc(Cl)c2)n(C(C)(C)C)n1
-8	1%	0.0%	-3%	COc1ccccc1NC(=O)CSC1=NC(=O)C(NC(C)=O)C(=O)N1 (stereo not given)
-3[21.1 µM]	-14%	1.1%	1%	COc1ccc(NC(=O)c2noc(C(C)C)c2[N+](=O)[O-])cc1
-2	-15%	0.6%	-13%	CCC(C(=O)NC1CCCC1)N(C(=O)Cn1nnc(-c2ccc(OC)c(OC)c2)n1)C1CCCCC1 (stereo not given)
.	9%&3%	-0.7%	2%	O=C(CCn1ccc2cc(S(=O)(=O)N3CCCC3)ccc21)NCc1ccccc1F
-12	-13%	0.9%	5%	O=C(Nc1ccc(Cl)cc1)OC(CN1CCCCC1)C(F)(F)F (stereo not given)
4	2%	-0.5%	1%	COCCCN=C1NN=C(c2cc(C)n(Cc3ccccc3Cl)c2C)CS1
2	0%	4.3%	0%	CC(O)Cc1cn(CC(=O)N2CCN(C(=O)OC(C)(C)C)CC2)nn1 (stereo not given)
.	.	-3.3%	7%	COc1ccc(C(CNC(=O)c2ccc(NS(=O)(=O)c3ccc(F)c(C)c3)cc2)N2CCOCC2)cc1 (stereo not given)
-2	-3%	-3.9%	-9%	O=C(CSCc1ccc(Cl)cc1)N/N=C/c1ccc(Cl)cc1Cl

A portion of the library; count on the stated rates, not on these rows.
